Source: PubChem BioAssay (several laboratories)
EBNA-1 inhibitor: blocks EBNA-1 binding to DNA; EBNA-1 DNA binding, fluorescence polarization; inhibition, % at 14.8 µM; hit rate 0.34% among 300,000; in the data active means inhibition above about 28%
Fam108B counter: blocks mouse Fam108B hydrolase in RBBP9 counter-screen. AID 1947. recombinant Fam108B, FP-Rh probe fluorescence polarization. inhibition, % at 9.51 µM. hit rate 0.33% among 300,000;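 active means inhibition above the screen mean inhibition plus 3 SD, computed separately per campaign, cut at about 18% in these data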;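 further: inhibitors lower polarization as less probe binds the enzyme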
Efflux pump mplx: blocks antifungal efflux pumps in multiplex yeast assay. S. cerevisiae Candida pump triplex, Nile Red efflux. AID 485275. inhibition, % at 10 µM. hit rate 0.44% among 330,000;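 active means plate passing quality check with inhibition over a set limit, or well fluorescence over plate mean plus 4 SD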;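 further: Nile Red retained in pooled yeast measured as flow cytometry median fluorescence; 0% = buffer negative control and 100% = Enniatin B positive control; higher means more Nile Red kept so more efflux inhibition; some compounds called inactive have numbers as strong as hits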
GLD-1 TGE inh: GLD-1-TGE RNA interaction inhibition (C. elegans). Q17339. purified GLD-1 + fluorescein TGE RNA, fluorescence polarization. inhibition, % at 5.96 µM. hit rate 0.44% among 320,000. AID 2280;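 active means percent inhibition above a per-plate cutoff, the plate mean of test compounds plus 3 SD, cut at about 30% in these data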;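 further: 0% = DMSO wells with GLD-1 and probe and 100% = wells lacking GLD-1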
Target sequence (Q17339 whole entry, looked up): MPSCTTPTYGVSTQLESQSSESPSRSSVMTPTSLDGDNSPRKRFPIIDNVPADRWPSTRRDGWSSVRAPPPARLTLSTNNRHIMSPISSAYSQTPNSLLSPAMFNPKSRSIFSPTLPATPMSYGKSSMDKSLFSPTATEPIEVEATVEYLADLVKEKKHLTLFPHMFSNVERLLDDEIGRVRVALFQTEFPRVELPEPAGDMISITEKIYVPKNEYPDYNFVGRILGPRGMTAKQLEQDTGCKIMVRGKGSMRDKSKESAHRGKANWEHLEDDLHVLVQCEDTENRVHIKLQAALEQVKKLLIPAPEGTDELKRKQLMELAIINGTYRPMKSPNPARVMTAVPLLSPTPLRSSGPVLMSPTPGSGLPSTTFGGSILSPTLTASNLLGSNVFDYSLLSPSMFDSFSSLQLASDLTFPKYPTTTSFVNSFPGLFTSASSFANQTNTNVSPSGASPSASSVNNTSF
MEX-5 binding: C. elegans MEX-5 TCR-2 RNA binding activity. hit rate 0.38% among 300,000. MEX-5/FITC-TCR2 RNA binding, fluorescence polarization; hits give low values. activity score (negative = inhibition of binding), % at 10 µM. Q9XUB2;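 active means inhibition past about -25% in most replicates, and total fluorescence under double the plate's negative control median, limit read from the data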;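 further: 0% = DMSO and -100% = 5 µM competing unlabeled TCR2 RNA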
ZTA counter: ZTA (EBV) inhibition in EBNA-1 counter-screen | P03206 | ZTA-DNA binding, fluorescence polarization | inhibition, % at 11 µM | hit rate 0.15% among 320,000 | AID 2234; in the data active means inhibition above about 33%
Target sequence (P03206 whole entry, looked up): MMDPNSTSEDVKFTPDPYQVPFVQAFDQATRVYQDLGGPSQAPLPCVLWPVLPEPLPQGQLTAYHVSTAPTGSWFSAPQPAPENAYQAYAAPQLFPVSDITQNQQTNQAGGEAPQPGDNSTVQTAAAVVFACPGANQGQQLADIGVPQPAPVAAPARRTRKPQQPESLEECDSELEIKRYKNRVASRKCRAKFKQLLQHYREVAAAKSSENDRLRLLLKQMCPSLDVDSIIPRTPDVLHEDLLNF
Yeast superoxide: lowers age-related superoxide in aged yeast cells; S. cerevisiae aged cells, superoxide DHE fluorescence; hits give low values; superoxide response (% of plate mean), % at 10 µM; hit rate 0.18% among 330,000;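 active means superoxide response under a set limit, about three screen SD below normal, cut at about 65% in these data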;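 further: yeast aged for seven days with compound at 30 °C before DHE staining; 100% = average MFI of all compound-treated wells on the plate with controls excluded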
Starred values were filed as active, the others as inactive; nt = not tested or not shown. Some of the compounds tested (hit frequency here may not be typical).

SMILES	EBNA-1 inhibitor	Fam108B counter	Efflux pump mplx	GLD-1 TGE inh	MEX-5 binding	ZTA counter	Yeast superoxide
Nc1ccn([C@@H]2O[C@H](CO)[C@@H](O)C2O)c(=O)n1 (stereo partly specified)	8	3	-0.1	8	0.1	-10	95
COC(=O)c1ccc2c(=O)[nH]c(CSc3nnc(C(F)(F)F)n3C)nc2c1	4	0	-0.2	7	-0.4	8	99
CCOC(=O)c1ccc(NC(=O)C2(c3ccc(OC)cc3)CCCC2)cc1	-8	-3	0.1	-2	-0.3	7	110
C/C(=N\NC(=O)c1ccc(NS(=O)(=O)c2cccs2)cc1)c1ccc(Cl)cc1	15	9	-0.8	-4	-0.6	-12	88
CN1CCNC(=O)C1CC(=O)NCCc1ccccc1F (stereo unspecified)	-1	0	-0.1	4	-3.4	-2	92
COc1c(N2CCNC(C)C2)c(F)cc2c(=O)c(C(=O)O)cn(C3CC3)c12 (stereo unspecified)	0	1	0.0	4	-1.2	6	103
COc1ccc(S(=O)(=O)N2CCN(C(=O)C3COc4ccccc4O3)CC2)cc1 (stereo unspecified)	nt	nt	-0.2	9	nt	9	106
CCc1ccc(C(C)NC(=O)c2ccc(F)cc2)cc1 (stereo unspecified)	-8	1	0.1	1	-2.1	-10	82
Cc1cccc(C)c1Nc1nnc(SCC(=O)Nc2sccc2C#N)s1	2	0	-0.1	-6	2.2	-8	96
O=C(c1ccco1)N1CCN(c2ncnc3sc4c(c23)CCC4)CC1	-5	-1	0.1	-17	0.9	3	106
C[C@H](NS(=O)(=O)c1ccc(Cl)cc1)C(=O)OCC(=O)c1ccc[nH]1	-13	-2	0.1	-3	-0.8	3	101
CCc1ccc(Nc2nc(N)nc(CSc3nnnn3-c3ccccc3)n2)cc1	-8	-6	0.1	-1	-3.2	3	93
CCc1nc(N)nc(N)c1-c1ccc(Cl)cc1	1	-1	0.1	6	-0.5	-2	120
O=C(N/N=C/c1ccc([N+](=O)[O-])cc1)c1cc(-c2ccc3c(c2)OCO3)n[nH]1	-3	-3	0.1	2	-0.2	-4	97
c1ccc2c(c1)[nH]c1ccccc12	8	0	0.1	9	0.9	-12	102
CCCCNc1nc(N(C)c2ccccc2)nc(-n2ccnc2)n1	-1	-2	-0.1	11	2.2	12	85
Cc1ccc(NC(=O)c2cnn(-c3ccccc3)c2NC(=O)c2ccco2)cc1C	7	4	0.1	2	-0.6	-2	110
CCN(CC)C(=O)Cn1c(=O)c2ccccc2n2c(=S)sc(-c3cccc(C)c3)c12	-10	-2	0.1	-6	-67*	-20	83
CCCCNC(=O)CCC(=O)Nc1ncc(-c2ccc(C)cc2)n1C	9	-1	0.0	6	-3.0	16	109
COc1cc(NC(=O)c2csc(N)n2)cc(C(=O)Nc2cccc(C(F)(F)F)c2)c1	7	-8	0.1	4	4.2	41*	110
O=C(O)c1ccc(N=Cc2nc(-c3ccco3)oc2O)cc1	-3	7	-0.1	-1	-2.4	3	88
O=[N+]([O-])c1ccc(S(=O)(=O)Nc2nc3ccccc3nc2Nc2ccccc2)cc1	-10	1	0.2	5	0.8	-3	122
CCn1c(COc2ccc(Cl)cc2)nnc1SCC(=O)Nc1ccc2c(c1)OCO2	0	-2	-0.1	7	-3.4	-18	85
COC(=O)CN1C(=S)N(C)C(=O)C1CC(=O)Nc1ccccc1 (stereo unspecified)	6	-5	0.0	-1	6.8	7	84
O=[N+]([O-])c1cccc(/C=C/c2nc3ccc([N+](=O)[O-])cc3[nH]2)c1	3	-7	0.2	1	-4.6	5	118
CCOC(=O)c1cnc(C(C)(C)C)[nH]c1=O	0	1	-0.1	-5	-2.1	-5	96
COc1ccc(CCCC(=O)NCc2ccccc2)cc1C	-2	0	0.0	2	0.9	-7	94
C=CCn1c(CNC(=O)c2ccccc2F)nnc1SCc1nc2ccccc2c(=O)[nH]1	2	1	0.1	-1	0.9	13	101
O=C(N/N=C/c1nn(-c2ccccc2)cc1-c1ccccc1)c1ccncc1	7	-8	-0.2	1	-0.1	-13	107
COc1ccc(NC(=O)c2sc(Cl)nc2-c2ccccc2)cc1	-2	-6	0.1	4	-0.5	1	112
C/C(=N\NC(=O)c1ccc(NS(=O)(=O)c2cccs2)cc1)c1ccncc1	5	2	-0.1	11	0.2	-9	92
CC[C@H]1OC(=O)[C@H](C)[C@@H](O[C@H]2C[C@@](C)(OC)[C@@H](O)[C@H](C)O2)[C@H](C)[C@@H](O[C@@H]2O[C@H](C)C[C@H](N(C)C)[C@H]2O)[C@](C)(OC)C[C@@H](C)C(=O)[C@H](C)[C@@H](O)[C@]1(C)O	4	1	0.0	1	0.0	6	93
Cc1cc(O)c(NC(=O)c2cccc([N+](=O)[O-])c2)cc1C	8	2	-0.1	3	1.9	0	101
Cc1ncccc1C(=O)N1CCCC(CNC(=O)C2(c3ccc(Cl)cc3)CC2)C1 (stereo unspecified)	3	1	-0.1	1	1.5	1	90
Cc1cc(C(F)F)n2ncc(C(=O)O)c2n1	-2	-2	0.0	3	-4.7	-12	102
CC(C)NCC(O)COc1cccc2ccccc12 (stereo unspecified)	1	-4	-0.1	-8	1.2	-1	103
O=S(=O)(Cc1c(F)cccc1Cl)c1ncn[nH]1	2	3	0.2	2	1.5	11	123
Cc1ccc(NC2=C(Cl)C(=O)OC2NC(=O)c2ccccc2)cc1 (stereo unspecified)	-2	-1	0.0	3	-1.2	-3	97
O=C(c1ccc(O)cc1)c1ccc(Cl)cc1	-11	-3	0.1	-2	nt	-17	110
CCCCn1nnnc1NCc1cccnc1	-1	0	-0.1	-6	0.6	6	111

Limited to Yeast superoxide and ZTA counter, for some of the entries so far:
SMILES | Yeast superoxide | ZTA counter
C/C(=N\NC(=O)c1ccc(NS(=O)(=O)c2cccs2)cc1)c1ccc(Cl)cc1 | 88 | -12
O=[N+]([O-])c1cccc(/C=C/c2nc3ccc([N+](=O)[O-])cc3[nH]2)c1 | 118 | 5

Other structures
SMILES	EBNA-1 inhibitor	Fam108B counter	Efflux pump mplx	GLD-1 TGE inh	MEX-5 binding	ZTA counter	Yeast superoxide
COC(=O)C1=NN(c2ccc(OC)cc2)C2C(=O)N(c3ccccc3OC)C(=O)C12 (stereo unspecified)	-9	2	0.1	5	1.0	2	97
COc1ccc(C2CC(=O)C(CS(=O)(=O)c3ccccc3)C(=O)C2)cc1 (stereo unspecified)	6	-1	0.0	-2	0.7	6	97
COC(=O)NNC(=S)NCc1ccc(C)cc1	-9	-1	0.1	-1	-1.5	7	114
CC(NC(=O)CCc1ccc(S(=O)(=O)NC2CCCCC2)cc1)c1ccccc1 (stereo unspecified)	-4	4	0.3	-5	1.4	1	93
Cc1ccnc(NC(=O)c2cccc(NC(=O)COc3ccccc3)c2)c1	-6	-2	-0.1	4	-0.9	-18	92
COc1ccccc1-n1c(-c2ccc(NS(C)(=O)=O)cc2)n[nH]c1=S	-6	-5	0.0	2	-2.2	-9	96
Cc1ccc(-n2nnnc2SCC(=O)Nc2ccc3c(c2)COC3=O)cc1C	7	-45	0.0	-3	-3.2	-16	105
CC1=C(C(=O)OCC2CCCO2)C(c2ccccc2OC(C)C)C2=C(CC(c3ccco3)CC2=O)N1 (stereo unspecified)	-3	5	0.1	0	0.8	-10	117
c1ccc(C(c2ccccc2)N2CCN(Cc3nnnn3C3CCCC3)CC2)cc1	-3	1	0.0	-2	0.1	-3	79
CCOC(=O)c1ccccc1NC(=O)c1cccc([N+](=O)[O-])c1	-1	4	0.0	-5	3.4	8	97
CC(=O)NS(=O)(=O)c1cccnc1Nc1cccc(Cl)c1C	3	6	0.0	1	-0.9	-6	114
COc1ccccc1NC(=O)C(=O)N(c1cccnc1)C(C(=O)NC(C)(C)C)c1ccccc1F (stereo unspecified)	-11	1	0.0	10	-0.5	3	98
CCc1ccc2nc(NC(=O)c3ccc4c(=O)[nH]c(CN5CCOCC5)nc4c3)sc2c1	5	-2	0.1	1	0.1	-2	116
Nc1c(C(=O)Nc2ccccc2F)sc2nc(-c3ccco3)ccc12	0	3	0.1	-10	-3.9	-9	99
Cn1c([N+](=O)[O-])cnc1COC(N)=O	-1	-4	-0.1	-1	0.9	10	109
O=C(Nc1ccncc1NC(=O)c1cccc([N+](=O)[O-])c1)c1cccc([N+](=O)[O-])c1	1	-9	0.2	-6	-5.5	-2	91
COC(=O)c1ccc2c(c1)C(=O)/C(=C/c1ccc(O)cc1)O2	-2	-13	0.0	-32	4.9	-3	94
C/C(=N\NC(=O)c1ccc(NS(=O)(=O)c2cccs2)cc1)c1cccs1	-11	-4	0.2	-7	0.5	5	119
Cc1cccc(NC(=O)CSc2nc(C)c(Cc3ccccc3)c(=O)[nH]2)c1	-12	4	0.1	1	-0.2	0	95
C=CCNc1nc(N(c2ccccc2)c2ccccc2)nc(-n2ccnc2)n1	0	-1	0.1	2	2.2	3	117
CCCN(CCO)Cc1ccc(Cl)c(Cl)c1	1	0	-0.1	4	-1.3	1	106
Nn1c(SCC(=O)NC(=O)NCc2ccco2)nnc1-c1ccc(OC(F)F)cc1	-1	4	0.2	-3	0.0	-3	124
CCOCC(=O)Nc1cc(C(=O)NCCC(C)C)ccc1Cl	11	-3	-0.1	-8	-1.5	9	103
CC1(C)Cc2ccccc2C(/C(=N/O)C(N)=O)=N1	1	0	0.1	5	1.6	4	86
CN(C)S(=O)(=O)c1cccc(NC(=O)CSc2nc3ccccc3n2-c2ccccc2)c1	-2	-27	-0.2	8	-3.6	-16	98
CCc1ccc(NCc2cc3c(C)nn(-c4ccccc4)c3[nH]c2=O)cc1	-17	1	0.0	-3	3.4	-10	101
CCn1c2ccccc2c2cc(NC(=O)COC(=O)c3ccccc3O)ccc21	6	0	-0.1	2	0.5	-6	83
O=C(Nc1cccc(C2=NCCN2)c1)Nc1cccc(C2=NCCN2)c1	9	-5	-0.2	3	nt	-8	82
O=C(NCc1ccccn1)C1COc2ccccc2O1 (stereo unspecified)	16	2	-0.1	3	-1.2	-9	87
COCCn1nnnc1C(c1cc2cc(C)ccc2[nH]c1=O)N1CCc2ccccc21 (stereo unspecified)	2	1	-0.1	8	-2.0	14	102
CCc1c(O)cc(=O)n(-c2ccccc2)c1-c1ccccc1	-1	1	-0.1	0	1.6	-7	99

16 compounds out of the list, sorted by molar mass, largest number first.
SMILES	EBNA-1 inhibitor	Fam108B counter	Efflux pump mplx	GLD-1 TGE inh	MEX-5 binding	ZTA counter	Yeast superoxide
CN(C)S(=O)(=O)c1cccc(NC(=O)CSc2nc3ccccc3n2-c2ccccc2)c1	-2	-27	-0.2	8	-3.6	-16	98
CCc1ccc2nc(NC(=O)c3ccc4c(=O)[nH]c(CN5CCOCC5)nc4c3)sc2c1	5	-2	0.1	1	0.1	-2	116
Nn1c(SCC(=O)NC(=O)NCc2ccco2)nnc1-c1ccc(OC(F)F)cc1	-1	4	0.2	-3	0.0	-3	124
COCCn1nnnc1C(c1cc2cc(C)ccc2[nH]c1=O)N1CCc2ccccc21 (stereo unspecified)	2	1	-0.1	8	-2.0	14	102
O=C(Nc1ccncc1NC(=O)c1cccc([N+](=O)[O-])c1)c1cccc([N+](=O)[O-])c1	1	-9	0.2	-6	-5.5	-2	91
C/C(=N\NC(=O)c1ccc(NS(=O)(=O)c2cccs2)cc1)c1cccs1	-11	-4	0.2	-7	0.5	5	119
Cc1cccc(NC(=O)CSc2nc(C)c(Cc3ccccc3)c(=O)[nH]2)c1	-12	4	0.1	1	-0.2	0	95
C=CCNc1nc(N(c2ccccc2)c2ccccc2)nc(-n2ccnc2)n1	0	-1	0.1	2	2.2	3	117
CCc1ccc(NCc2cc3c(C)nn(-c4ccccc4)c3[nH]c2=O)cc1	-17	1	0.0	-3	3.4	-10	101
Nc1c(C(=O)Nc2ccccc2F)sc2nc(-c3ccco3)ccc12	0	3	0.1	-10	-3.9	-9	99
CCOCC(=O)Nc1cc(C(=O)NCCC(C)C)ccc1Cl	11	-3	-0.1	-8	-1.5	9	103
COC(=O)c1ccc2c(c1)C(=O)/C(=C/c1ccc(O)cc1)O2	-2	-13	0.0	-32	4.9	-3	94
CCc1c(O)cc(=O)n(-c2ccccc2)c1-c1ccccc1	-1	1	-0.1	0	1.6	-7	99
O=C(NCc1ccccn1)C1COc2ccccc2O1 (stereo unspecified)	16	2	-0.1	3	-1.2	-9	87
CCCN(CCO)Cc1ccc(Cl)c(Cl)c1	1	0	-0.1	4	-1.3	1	106
CC1(C)Cc2ccccc2C(/C(=N/O)C(N)=O)=N1	1	0	0.1	5	1.6	4	86
